YopH PTP inh = inhibitors of Yersinia enterocolitica YopH tyrosine phosphatase; fluorescence Ex485/Em525; inhibition, %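 (about 10 µM by stock and volumes)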; 0.16% of 140,000 active; AID 898;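 active means inhibition of 50% or more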;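 further: controls were vehicle for no effect and minimum signal wells for full effect; inactives centre near -20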
RecA splice inh = inhibitors of M. tuberculosis RecA intein splicing | cell-free RecA intein splicing, fluorescence | inhibition, %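 (about 9 µM by stock and volumes)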 | 0.75% of 290,000 active; in the data active means inhibition above about 30%; inconclusive means no clear call, values can overlap the other calls;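 further: 0% = vehicle wells and 100% = reference inhibitor control wells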
Target sequence (P9WHJ3 whole entry, looked up, canonical isoform): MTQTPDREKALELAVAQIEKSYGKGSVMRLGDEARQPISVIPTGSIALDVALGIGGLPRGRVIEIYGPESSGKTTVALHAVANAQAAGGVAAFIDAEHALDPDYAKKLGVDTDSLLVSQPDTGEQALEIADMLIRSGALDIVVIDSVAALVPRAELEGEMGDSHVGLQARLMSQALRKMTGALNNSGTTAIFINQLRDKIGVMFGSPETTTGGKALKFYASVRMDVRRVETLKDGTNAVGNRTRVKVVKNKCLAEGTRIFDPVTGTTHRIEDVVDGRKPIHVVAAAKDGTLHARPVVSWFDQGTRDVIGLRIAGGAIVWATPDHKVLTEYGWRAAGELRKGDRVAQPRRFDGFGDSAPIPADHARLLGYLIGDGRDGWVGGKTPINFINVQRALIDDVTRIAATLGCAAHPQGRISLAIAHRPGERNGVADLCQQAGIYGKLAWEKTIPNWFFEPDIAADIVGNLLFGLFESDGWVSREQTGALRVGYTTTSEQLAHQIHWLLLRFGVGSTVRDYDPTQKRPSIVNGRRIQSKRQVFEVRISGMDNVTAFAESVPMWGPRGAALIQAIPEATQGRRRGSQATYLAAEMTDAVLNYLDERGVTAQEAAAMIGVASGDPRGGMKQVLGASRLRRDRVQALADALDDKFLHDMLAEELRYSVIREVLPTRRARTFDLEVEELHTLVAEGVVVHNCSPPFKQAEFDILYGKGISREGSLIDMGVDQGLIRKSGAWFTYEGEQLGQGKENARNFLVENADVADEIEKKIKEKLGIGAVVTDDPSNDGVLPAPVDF
Arbovirus anti = antivirals against arbovirus infection | arbovirus infection cell-based antiviral screen | inhibition, % at 10 µM | 0.37% of 200,000 active | AID 1251;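 active means inhibition from about 30%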;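 further: bluetongue infection of BSR cells; cell survival read as ATP light after 72 h; 0% = infected wells without compound and 100% = uninfected wells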
Mtb bLac sens = beta-lactam sensitization of Mtb H37Rv; inhibition, % at 25 µM; 0.27% of 330,000 active; M. tuberculosis H37Rv growth with meropenem, percent inhibition; hits of this screen are not shown here; AID 434955;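 active means about 74% or more and at least 40 points above the plate without the antibiotic, then above 30% in a dose series; inconclusive means first-round hits that could not be retested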;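 further: growth measured after seven days incubation then overnight dye step; 0% = bacteria only wells and 100% = bacteria with antibiotic; twin plates without the antibiotic show which effects depend on it; some results filed as inactive read as strong as hits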
Mtb growth = M. tuberculosis H37Rv growth inhibitors, H37Rv strain (AID 1626); M. tuberculosis H37Rv growth inhibition; higher % means a stronger effect; inhibition, % at 10 µM; hits with a dose series show IC50 in µM; 0.95% of 220,000 active;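 active means confirmed in a dose series; inconclusive means inhibition above 80% but not taken into the dose series; inactive means below 80% or under 30% at every dose of the series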;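 further: bacteria incubated seven days before Alamar blue readout; 0% = bacteria only wells and 100% = bacteria with antibiotic wells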
Arbovirus anti repeat = also measured in Arbovirus anti; calls as there; inhibition, %; measured here: 10K subset replicate screen; many hits read low in the repeat;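 first of two repeat runs on a subset; 0% = infected and 100% = uninfected wells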
Starred values were filed as active, the others as inactive; ? = inconclusive; / = no result given. These rows are one share of the data (hit frequency here may not be typical).

SMILES | YopH PTP inh | RecA splice inh | Arbovirus anti | Mtb bLac sens | Mtb growth | others
CCC(C(=O)NCc1cccnc1)c1ccccc1 (stereo unspecified) | / | -2.3 | 5 | 0 | -8%
CN(C)c1ncc(C2=C(Cl)C(=O)C(N3CCCC3)=C(Cl)C2=O)s1 | -46 | 60* | -4 | 11 | 1%
Cc1onc(-c2ccccc2Cl)c1C(=O)OCn1nnc2ccccc2c1=O | 9 | 0.7 | 3 | 6 | 4% | Arbovirus anti repeat=1
COc1ccc(/C=C2\COc3ccccc3C2=O)cc1OC | -2 | 7.8 | -42 | 96 | 9.4µM*
CC1C(=O)C(C)C(c2cc(Cl)ccc2O)NC1c1cc(Cl)ccc1O (stereo unspecified) | / | 50* | / | -1 | /
CC(C)(C)C(=O)Cn1ncc(NC2CC2)c(Br)c1=O | -43 | -1.4 | 7 | 14 | -12%
O=c1c2sccc2nc(SCc2cc(=O)n3ccccc3n2)n1Cc1ccccn1 | / | -1.2 | -5 | -2 | -5%
COc1ccc(C(=O)Nc2ccc(C(=O)N3CCCCC3C)cc2)c(OC)c1OC (stereo unspecified) | / | 1.6 | / | -3 | /
COc1ccc(C2(CNC(=O)Cc3ccc(OC)c(OC)c3)CCOCC2)cc1 | 16 | 0.3 | 8 | -2 | -12%
Cc1[nH]n(-c2ccccc2)c(=O)c1N=Nc1ccc2c(c1)OCO2 | / | 2.6 | -2 | 2 | -5%
O=C(Nc1ccn(Cc2cccc3ccccc23)n1)c1cccnc1 | / | 1.5 | -25 | -5 | 4%
COc1ccc(C2CC(=O)c3cnc(NC(=O)c4cccc(OC)c4)nc3C2)cc1 (stereo unspecified) | -47 | 0.2 | 5 | 4 | -4%
Cc1ccc(COC(=O)CCN=C2NS(=O)(=O)c3ccccc32)cc1 | / | -1.4 | / | -15 | /
O=S(=O)(Nc1nc2ccccc2nc1NCCN1CCOCC1)c1cccc(Cl)c1 | -53 | -2.5 | 13 | -4 | -11%
O=C(NNC(=O)C1CCCCC1)c1cnccn1 | -25 | -5.8 | -10 | 47 | -4%
CCOc1ccc(CCNS(=O)(=O)c2ccc3c(c2)NC(=O)CC(=O)N3)cc1OCC | / | 0.8 | 23 | 4 | -2%
CCc1nnc(NC(=O)C2CCCN2C(=O)NC2CCCCC2)s1 (stereo unspecified) | -35 | 1.4 | -2 | -5 | -1%
COC(=O)c1cc(S(=O)(=O)NCCc2cccc(C)c2)cn1C | / | 4.3 | / | -5 | /
CC(C)(C)C(=O)OCc1nc(-c2ccc(C(F)(F)F)cc2)cs1 | / | 1.2 | / | -2 | -4%
CCOc1ccccc1OCCOCCN1CC(C)OC(C)C1 (stereo unspecified) | -29 | -2.1 | 11 | -6 | -7%
CC(C)CNC(=O)COC(=O)c1c2c(nc3ccccc13)CCC2 | / | -1.9 | / | 0 | /
CCOC(=O)c1c(Cc2ccccc2)c[nH]c1C | / | -0.4 | 4 | -1 | 8%
CC1CN(C(=O)N2CCOCC2)CCN1C(=O)N1CCOCC1 (stereo unspecified) | / | / | 2 | -4 | 4%
O=C(NC1CCCCC1)C1CCN(S(=O)(=O)N2CCOCC2)CC1 | -1 | -0.6 | 3 | -6 | -3%

An excerpt from above in order of heavy-atom count, rising.
SMILES | YopH PTP inh | RecA splice inh | Arbovirus anti | Mtb bLac sens | Mtb growth | others
CCOC(=O)c1c(Cc2ccccc2)c[nH]c1C | / | -0.4 | 4 | -1 | 8%
CC(C)(C)C(=O)Cn1ncc(NC2CC2)c(Br)c1=O | -43 | -1.4 | 7 | 14 | -12%
COc1ccc(/C=C2\COc3ccccc3C2=O)cc1OC | -2 | 7.8 | -42 | 96 | 9.4µM*
CN(C)c1ncc(C2=C(Cl)C(=O)C(N3CCCC3)=C(Cl)C2=O)s1 | -46 | 60* | -4 | 11 | 1%
Cc1[nH]n(-c2ccccc2)c(=O)c1N=Nc1ccc2c(c1)OCO2 | / | 2.6 | -2 | 2 | -5%
Cc1ccc(COC(=O)CCN=C2NS(=O)(=O)c3ccccc32)cc1 | / | -1.4 | / | -15 | /
Cc1onc(-c2ccccc2Cl)c1C(=O)OCn1nnc2ccccc2c1=O | 9 | 0.7 | 3 | 6 | 4% | Arbovirus anti repeat=1

(next part)
SMILES | YopH PTP inh | RecA splice inh | Arbovirus anti | Mtb bLac sens | Mtb growth | others
Cn1c(/C=N/c2nc3ccccc3[nH]2)nc2ccccc21 | -10 | -1.8 | 0 | / | 1%
COc1ccc2[nH]cc(/C=C/c3cc[n+](C)cc3)c2c1 | / | 1.7 | / | -3 | /
CC(C)(C)c1ccc(-c2nnc(SC3CCOC3=O)n2Cc2ccccc2)cc1 (stereo unspecified) | -8 | 6.2 | 1 | 3 | 0%
O=C(O)c1cc(=O)c2c(Cl)cc(Cl)cc2[nH]1 | / | -2.3 | / | -1 | -10%
CC(=O)Nc1ccc(NC(=O)CCn2cnnn2)cc1 | / | 9.2 | 7 | 7 | 3%
COC(=O)C(Cc1ccc(O)cc1)NC(=O)CCC(=O)Nc1ccc(S(N)(=O)=O)cc1 (stereo unspecified) | -60 | -1.3 | 0 | -8 | 2%
CC(=O)N1c2ccc(S(=O)(=O)N3CCCC3C(=O)Nc3ccc(C)cc3)cc2CC1C (stereo unspecified) | / | -1.1 | / | ? | /
Cc1ccc(CN2CCN(Cc3ccon3)CC2CCO)cc1 (stereo unspecified) | / | 2.9 | 3 | -1 | 1%
CCn1c(NC(=O)Nc2cccc(C)c2C)cc2sccc21 | -9 | -8.1 | -6 | 10 | /
NC(=S)c1cn(C2OC(CO)C(O)C2O)c2ncnc(N)c12 (stereo unspecified) | / | 0.2 | / | 92 | ?
CCOc1ccc(NC(=O)CN(C)C(=O)c2c(C)noc2C)cc1OCC | / | 1.7 | / | -3 | /
COc1ccc(C(=O)N/N=C\c2coc3ccc(C)cc3c2=O)cc1 | / | 6.9 | / | -3 | /
COC(=O)c1[nH]c2cc(OC)ccc2c1NC(=O)CN1CCC(C(N)=O)CC1 | -24 | -2.5 | 0 | 2 | -4%
CC(=O)c1sc(C(C)(C)C)cc1NC(=O)CCC(=O)O | / | / | / | -3 | -12%
N#CCCn1cc(C(=O)Nc2ccc(C(=O)O)cc2)c(-c2cccs2)n1 | / | -2.4 | -1 | 6 | -2%
Cc1cc(C)nc(NC(=S)Nc2ccc(Br)cc2Cl)c1 | / | 2.5 | -15 | 2 | -8%
Cc1c(NC(=O)C(C)N2C(=O)c3ccccc3C2=O)c(=O)n(-c2ccccc2)n1C (stereo unspecified) | 0 | -1.2 | 6 | -2 | 1%
Cc1cc(C)c(Cn2cnc3ccccc32)c(C)c1 | / | 5.4 | 2 | 42 | 13%
CCOCCCNC(=O)CN1C(=O)COc2ccc(S(=O)(=O)N3CCCC3)cc21 | / | -2.8 | / | 0 | /
CCn1c(CNC(=O)Cc2ccc(OC)cc2)nnc1SCCOc1ccccc1 | 9 | 6.0 | 7 | 0 | -9%
CCCCCCSc1ccc([C@H]2N[C@@](C)(C(=O)OC)[C@H]3C(=O)N(CC)C(=O)[C@@H]23)cc1 | / | 3.8 | / | -5 | /
O=C(CN1CCN(c2ccc(F)cc2)CC1)Nc1nnc(-c2ccccc2)s1 | -21 | 1.0 | 3 | 32 | 8%
Cc1cccc(NCc2n[nH]c(=S)n2-c2ccccc2)c1 | / | -0.9 | 4 | 10 | -2%
COc1cc(NC(=S)N2CCN(Cc3ccccc3)CC2)cc(OC)c1 | -44 | -1.1 | 9 | 3 | 0%

Molecules from the list above that have a tert-butyl group (four):
SMILES | YopH PTP inh | RecA splice inh | Arbovirus anti | Mtb bLac sens | Mtb growth | others
CC(C)(C)C(=O)Cn1ncc(NC2CC2)c(Br)c1=O | -43 | -1.4 | 7 | 14 | -12%
CC(C)(C)C(=O)OCc1nc(-c2ccc(C(F)(F)F)cc2)cs1 | / | 1.2 | / | -2 | -4%
CC(C)(C)c1ccc(-c2nnc(SC3CCOC3=O)n2Cc2ccccc2)cc1 (stereo unspecified) | -8 | 6.2 | 1 | 3 | 0%
CC(=O)c1sc(C(C)(C)C)cc1NC(=O)CCC(=O)O | / | / | / | -3 | -12%

Pulled by compound from the list above:
SMILES | YopH PTP inh | RecA splice inh | Arbovirus anti | Mtb bLac sens | Mtb growth | others
CCCCCCSc1ccc([C@H]2N[C@@](C)(C(=O)OC)[C@H]3C(=O)N(CC)C(=O)[C@@H]23)cc1 | / | 3.8 | / | -5 | /
COC(=O)C(Cc1ccc(O)cc1)NC(=O)CCC(=O)Nc1ccc(S(N)(=O)=O)cc1 (stereo unspecified) | -60 | -1.3 | 0 | -8 | 2%
Cc1cccc(NCc2n[nH]c(=S)n2-c2ccccc2)c1 | / | -0.9 | 4 | 10 | -2%
CC(=O)c1sc(C(C)(C)C)cc1NC(=O)CCC(=O)O | / | / | / | -3 | -12%
Cc1cc(C)nc(NC(=S)Nc2ccc(Br)cc2Cl)c1 | / | 2.5 | -15 | 2 | -8%

Other compounds follow:
SMILES | YopH PTP inh | RecA splice inh | Arbovirus anti | Mtb bLac sens | Mtb growth | others
CCN(CC)c1ccc(/C=N/NC(=O)c2cc3ccccc3[nH]2)cc1 | / | 0.6 | / | 5 | /
CCCCc1nc2cc(C(=O)NCCc3cnn(C)c3)ccc2o1 | / | 2.4 | / | ? | /
CCCNC(=O)c1cccc(COCC(F)(F)F)c1 | -8 | 1.3 | 1 | 1 | -7%
Cc1cc(-n2nc(C)cc2C)nc(N)n1 | -8 | -0.6 | -2 | -2 | -9%

Screening results (PubChem BioAssay)
